PrP 5UTR inh – inhibition of PrP 5' UTR reporter expression; cell-based PrP 5' UTR mRNA reporter, plate reader; inhibition, % (no concentration beside the values); 340,000 tested, 0.35% active; AID 488862;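 active = every replicate at 50% or more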;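 note: 0 = median of the neutral control wells; tested in H4 reporter cells; numbers are from one replicate; inactives centre near -14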
BJeLR lethal – BJeLR cell viability loss. inhibition, % (concentration not given with the values). BJeLR (HRASV12) viability, CellTiter-Glo ATP luminescence, 48 h; reference of the scale not given here. 300,000 tested, 0.17% active;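 active = replicate mean above 50%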;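 note: 50 nL library stock added to about 25 µL; numbers are from one replicate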
Bead autofluor – compound fluorescence in toxin protease inhibitor counterscreen; compound autofluorescence counterscreen, microsphere flow cytometry; stronger effect = higher value; fluorescence intensity (concentration not given with the values); 360,000 tested, 3.1% active; AID 624483;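 active = at least 3 SD above the mean of all compounds, about 16000 in these data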;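 note: 100 nL of 1 mM stock went into each well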
ugtP null kill – compounds lethal to S. aureus RN4220 ugtP deletion mutant | growth inhibition, % (concentration not given with the values) | OD600 growth, 16 h; some inactives read as strong as hits | AID 1259309 | 330,000 tested, 0.54% active;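 active = z-score under -3 and OD600 up to 0.15 on both plates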;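 note: plate controls were untreated wells for no effect and antibiotic for full effect; wells of about 80 µL received 100 nL stock; the first replicate is given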
RN4220 kill – kills Staphylococcus aureus RN4220 | S. aureus RN4220 growth, OD600, 16 h | inhibition, % (test concentration not listed) | 330,000 tested, 0.33% active | AID 1259311;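 active = z-score of -3 or lower and OD600 up to 0.18 on both plates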;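 note: plate controls were untreated cells for no effect and reference antibiotic for full effect; stock transfer was 100 nL into about 80 µL; one replicate is shown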
Mtb hypoxia inh – inhibitors of hypoxia-regulated fluorescent reporter in Mycobacterium tuberculosis | M. tuberculosis hypoxia-regulated fluorescent reporter, fluorescence | fluorescence inhibition, % (test concentration not listed) | 300,000 tested, 0.1% active;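 active = 35 to 45% if threefold the growth effect, above 45% if 1.5-fold the growth effect; inactive = the rest, general growth blockers included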;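 note: wells of about 50 µL received 100 nL stock; 0% = vehicle wells and 100% = reference inhibitor wells; whole bacteria with a GFP reporter of the hypoxia response; strong numbers were not always called active; many hits fall short of the cut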
Mtb hypoxia inh growth – second read-out of Mtb hypoxia inh, no call of its own (marks repeat the call); growth inhibition, %; measured here: M. tuberculosis growth (absorbance);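 0% = vehicle and 100% = reference antibiotic; read after six days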
An asterisk follows results filed as active; nt = not tested or not shown.

SMILES	PrP 5UTR inh	BJeLR lethal	Bead autofluor	ugtP null kill	RN4220 kill	Mtb hypoxia inh	Mtb hypoxia inh growth
COc1ccc(CNC(=O)C2CCN(S(=O)(=O)N3CCCCC3)CC2)cc1	10	2	4626	3	0.7	3	-3
O=C(Nc1ccc(F)c(Cl)c1)c1ccc2c(=O)n3c(nc2c1)CCCCC3	-87	12	9035	-16	-2.9	9	14
CC1(C)COC(c2cccn2Cc2ccccc2Cl)=N1	-9	-4	3086	22	2.8	19	2
Cc1ccc(Cn2nc(C)cc2C(=O)Nc2ccc(Cl)cc2)cc1	nt	-7	3155	-5	-5.0	-2	-9
CCCCCc1nc2c(=O)n(C)c3ccccc3c2o1	-23	7	6731	-9	4.6	-9	-2
COc1ccc(C(=O)NNC(=O)c2cccc(S(=O)(=O)N3CCOCC3)c2)cc1	-12	nt	3949	-2	1.4	2	18
N#Cc1c(NCCN)nc(-c2ccco2)c2c1CCCC2	-39	3	2900	2	-3.2	nt	nt
Cc1ccc2[nH]c3c(=O)[nH]ncc3c2c1	-6	0	3534	10	8.7	2	1
Cc1ccc([C@H]2C(C(=O)O)=C[C@@H](CC3CCCC3)N2S(=O)(=O)c2ccc(C)cc2)cc1	-27	nt	3554	-22	22	-3	3
O=C(c1ccc2c(c1)OCCO2)C1CCN(S(=O)(=O)c2ccccc2F)CC1	-26	5	23887*	11	1.2	2	-13
O=C(COc1ccc(S(=O)(=O)N2CCOCC2)cc1Cl)NCCCn1ccnc1	-13	0	4346	4	-1.5	7	6
CN1CCCN(S(=O)(=O)c2cccc(C#N)c2)CC1	-13	9	3653	6	8.1	14	-4
O=C(CSc1ccc(-c2ccco2)nn1)c1cccc([N+](=O)[O-])c1	-30	10	9170	nt	nt	nt	nt
OCCN1CCN(C2CCC(c3ccc(F)cc3)c3ccc(F)cc32)CC1 (stereo unspecified)	-20	0	4277	26	-14	23	23
CC(C(=O)Nc1ccc2ccccc2c1)C1C[C@@]1(C)C(NC(=O)c1cccnc1)c1ccccc1 (stereo partly specified)	nt	nt	nt	-10	7.1	-3	7
COc1ccc(C2=NN(C(=O)CCCC(=O)O)C(c3cn(-c4ccccc4)nc3-c3ccccc3)C2)cc1 (stereo unspecified)	-11	9	4981	6	3.5	-5	4
O=C(O)c1cc(NC(=O)c2ccco2)cc(NC(=O)c2ccco2)c1	-22	-4	3569	6	1.8	1	0
COc1ccc(NC(=O)N2CCCC2C(=O)NCc2ccc(C)cc2)cc1 (stereo unspecified)	-5	-9	4659	18	5.6	10	7
Cc1cc(S(=O)(=O)N2CC(=O)N(CCc3ccccc3)C(=O)C2)ccc1F	-18	-8	2790	-2	3.0	7	12
C=C(C)COc1ccc(-c2nc(N)ncc2Oc2ccc(OC)cc2)c(O)c1	-3	-7	3921	-3	0.1	nt	nt

Full records as entered above. Values in the order: PrP 5UTR inh	BJeLR lethal	Bead autofluor	ugtP null kill	RN4220 kill	Mtb hypoxia inh	Mtb hypoxia inh growth
N#Cc1c(NCCN)nc(-c2ccco2)c2c1CCCC2 in the list: -39	3	2900	2	-3.2	nt	nt
CC(C(=O)Nc1ccc2ccccc2c1)C1C[C@@]1(C)C(NC(=O)c1cccnc1)c1ccccc1 (stereo partly specified) in the list: nt	nt	nt	-10	7.1	-3	7
C=C(C)COc1ccc(-c2nc(N)ncc2Oc2ccc(OC)cc2)c(O)c1 in the list: -3	-7	3921	-3	0.1	nt	nt
COc1ccc(CNC(=O)C2CCN(S(=O)(=O)N3CCCCC3)CC2)cc1 in the list: 10	2	4626	3	0.7	3	-3
O=C(COc1ccc(S(=O)(=O)N2CCOCC2)cc1Cl)NCCCn1ccnc1 in the list: -13	0	4346	4	-1.5	7	6

Random excerpt: six compounds from above
SMILES	PrP 5UTR inh	BJeLR lethal	Bead autofluor	ugtP null kill	RN4220 kill	Mtb hypoxia inh	Mtb hypoxia inh growth
OCCN1CCN(C2CCC(c3ccc(F)cc3)c3ccc(F)cc32)CC1 (stereo unspecified)	-20	0	4277	26	-14	23	23
O=C(O)c1cc(NC(=O)c2ccco2)cc(NC(=O)c2ccco2)c1	-22	-4	3569	6	1.8	1	0
CC1(C)COC(c2cccn2Cc2ccccc2Cl)=N1	-9	-4	3086	22	2.8	19	2
CC(C(=O)Nc1ccc2ccccc2c1)C1C[C@@]1(C)C(NC(=O)c1cccnc1)c1ccccc1 (stereo partly specified)	nt	nt	nt	-10	7.1	-3	7
Cc1ccc(Cn2nc(C)cc2C(=O)Nc2ccc(Cl)cc2)cc1	nt	-7	3155	-5	-5.0	-2	-9
CCCCCc1nc2c(=O)n(C)c3ccccc3c2o1	-23	7	6731	-9	4.6	-9	-2

New compounds follow
SMILES	PrP 5UTR inh	BJeLR lethal	Bead autofluor	ugtP null kill	RN4220 kill	Mtb hypoxia inh	Mtb hypoxia inh growth
Cc1cc(Br)c(NC(=O)CCNC(=O)OCc2ccccc2)cc1C	-43	-4	3269	12	4.7	18	7
COc1ccc(S(=O)(=O)N2CCN(C(=O)c3ccc([N+](=O)[O-])o3)CC2)cc1	-24	2	5456	17	22	nt	nt
COc1ccc(CC[n+]2cc(/N=C(\C)[O-])on2)cc1OC	-20	3	7411	2	2.8	1	13
COc1ccc(OC)c(C(=O)c2nc3c(n2O)CCCCC3)c1	0	4	23230*	-19	2.5	-10	-1
CCCCOC(=O)c1cccnc1	-23	-1	5957	-9	3.9	nt	nt
CC1CCCCC1NC(=O)c1ccc(CSc2nc3ccncc3[nH]2)cc1 (stereo unspecified)	-10	6	5672	11	6.2	8	5
O=C(NCCCN1CCCC1)Nc1cccc2ccccc12	-12	15	3426	nt	nt	nt	nt
COC(=O)c1cccc(CN2C(=O)SC(Nc3ccc(C)cc3)C2=O)c1 (stereo unspecified)	-12	-3	5308	3	2.6	1	-2
Cc1c(C(=O)NCc2ccccn2)sc2nc(-c3ccccc3)cn12	-20	-6	4195	-5	-4.8	3	5
COC(=O)CSc1nnc(NC(=O)CCc2ccccc2)s1	2	-11	4492	-2	3.8	-6	-7
CCOc1ccc(-n2cnnn2)cc1S(=O)(=O)Nc1c(C)cccc1C	-23	-1	10704	13	5.9	-8	3
C=CCNC(=O)C(C#N)=Cc1cn(-c2ccccc2)nc1-c1cccs1	nt	nt	nt	-7	6.5	5	5
Cn1c(SCC(=O)Nc2ccc3c(c2)OCCO3)nnc1-c1ccccn1	-18	-2	10312	-2	5.0	-1	4
COc1ccc(-c2nnc(NC(=O)c3cccs3)s2)c(OC)c1	-35	0	4542	1	2.4	1	5
CCCOc1ccccc1C1CC(=O)NC2=C1C(=O)CCC2 (stereo unspecified)	-34	39	4472	0	-0.4	nt	nt
Cc1onc(-c2ccccc2)c1C(=O)N/N=C/c1ccc(Br)cc1	-16	-3	5330	nt	nt	nt	nt
Cn1c(=O)oc2cc(C(=O)c3ccccc3)ccc21	-15	0	4804	3	11	nt	nt
O=C(CCCl)N(Cc1nc2ccccc2c(=O)[nH]1)Cc1cccs1	-9	-3	4407	-63	0.1	11	8

High-throughput results as filed in PubChem.

The order is random; 4.1% or so of the library scored in one or more.
